CSC inhib: cancer stem cell inhibition; inhibition, % at 7.5 µM; 300,000 tested, 1.1% active; cancer stem cell-like cells viability, luminescence; AID 2717;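 active = mean at 75% or more and at least half the replicates too; tested in HMLE shEcad cells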;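 also: 0% = median of negative and 100% = median of positive control wells; the first replicate is given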
Rce1 inh: yeast Ras-converting enzyme inhibition | yeast membranes, quenched prenylated peptide cleavage fluorescence | calls only | 290,000 tested, 0.27% active;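 active = fall in fluorescence gain of 50% or more versus controls, with final raw signal at or below 3038400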;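 also: plate controls were neutral control wells for no effect and wells lacking membranes for full effect; tested at 10 µM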
MT1-MMP act inh: blocks activation of human MT1-MMP; P50281; HT1080 RFP-PRO-GFP cells, GFP/RFP ratio fluorescence, overnight; percent of plate control window, DMSO zero; GFP/RFP ratio change, % at 20 µM; 360,000 tested, 0.061% active;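 active = GFP/RFP ratio change of at least 30% with cell ATP level not reduced by more than half and red fluorescence within 50% of control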; also: strong numbers were not always called active
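Assay system – RFP-PRO-GFP reporter HT1080 cells · Compound dosing – single dose of 20 µM compound, 1% DMSO final · Incubation – overnight compound exposure at 37 °C · Measure – GFP/RFP fluorescence ratio · Benchmarks – DMSO wells and RFP-L50D-GFP cells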
PABP FP inh: blocks human PABP binding to poly(A) RNA. AID 2014. inhibition, % at 35 µM. fluorescence polarization. P11940. 290,000 tested, 1% active;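 active = 50% or more with normal probe brightness, or confirmed in later tests; about a fifth of its hits are not listed in these tables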;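 also: calls also rest on retests at 20 µM and on dose response follow-up; controls were probe without protein and protein plus probe with vehicle; some compounds called inactive have numbers as strong as hits; many hits fall short of the cut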
Target sequence (P11940 whole entry, looked up): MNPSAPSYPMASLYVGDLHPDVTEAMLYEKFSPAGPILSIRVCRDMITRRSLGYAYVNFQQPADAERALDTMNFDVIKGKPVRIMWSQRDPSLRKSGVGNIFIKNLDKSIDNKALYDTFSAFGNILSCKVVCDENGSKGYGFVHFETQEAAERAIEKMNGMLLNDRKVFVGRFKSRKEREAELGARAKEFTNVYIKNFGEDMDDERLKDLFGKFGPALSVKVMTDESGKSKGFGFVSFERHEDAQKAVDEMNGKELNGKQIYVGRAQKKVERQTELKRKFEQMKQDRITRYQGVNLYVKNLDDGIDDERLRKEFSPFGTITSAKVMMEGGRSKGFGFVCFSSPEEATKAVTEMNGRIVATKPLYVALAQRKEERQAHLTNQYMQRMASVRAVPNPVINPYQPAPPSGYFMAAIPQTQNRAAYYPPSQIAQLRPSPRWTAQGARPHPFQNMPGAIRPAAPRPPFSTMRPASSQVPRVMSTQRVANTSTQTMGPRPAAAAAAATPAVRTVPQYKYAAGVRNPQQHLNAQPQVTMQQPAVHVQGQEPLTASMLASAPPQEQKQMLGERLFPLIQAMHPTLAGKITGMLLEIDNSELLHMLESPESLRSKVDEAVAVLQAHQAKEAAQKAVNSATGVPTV
Env fusion inh: HIV envelope-mediated fusion inhibition | inhibition, % at 12.3 µM | HeLa-JRFL Env/CEM21 cell fusion, luciferase | 360,000 tested, 1.1% active;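 active = mean replicate inhibition score of at least 50 and every replicate individually at or above 50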;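 also: 0% = plate neutral controls and 100% = maraviroc near 300 nM; one replicate is shown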
Yeast UUG start: modulators of start codon recognition fidelity in yeast; activity score, % at 18.7 µM; S. cerevisiae UUG-firefly luciferase reporter, luminescence/redox ratio; 350,000 tested, 0.13% active;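 active = replicate mean at a twofold rise or more, about +100% in these data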;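 also: firefly luciferase made from a UUG start codon reports start codon fidelity; reporter light over untreated wells divided by growth signal over untreated wells; some hits fall short of that in this replicate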
eIF4H FP inh: inhibitors of RNA binding by human eIF4H; eIF4H fluorescence polarization binding assay; inhibition, % at 35 µM; 290,000 tested, 0.94% active;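 active = 50% or more with normal probe brightness, or confirmed in later tests; about a fifth of its hits are not listed in these tables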;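 also: calls also rest on retests at 20 µM and on dose response follow-up; 0% = protein and probe with vehicle and 100% = probe without protein; strong numbers were not always called active; many hits fall short of the cut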
MT1-MMP act inh RFP: second read-out of MT1-MMP act inh, no call of its own (marks repeat the call); RFP signal change, %; measured here: RFP expression control read;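 0 = vehicle wells; hits needed this value within 50% of zero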
* hit, by the source's call; i = inactive; nt = no result given; & = joins results of further samples.

molecule	CSC inhib	Yeast UUG start	MT1-MMP act inh RFP	Rce1 inh	Env fusion inh	PABP FP inh	MT1-MMP act inh	eIF4H FP inh
CC(C)CC(NC(=O)C(NC(=O)OC(C)(C)C)C(C)C)C(=O)NC(CCC(=O)OCc1ccccc1)C(N)=O (configuration not stated)	-9.7	4.4&1.4	7.1	i	-12.7	-1.6	2.7	1.5
CC(OC(=O)CNC(=O)C12CC3CC(CC(C3)C1)C2)C(=O)Nc1ccc(N2CCOCC2)cc1 (configuration not stated)	-5.0	9.2	2.3	i	nt	-8.6	5.3	-7.0
N#Cc1ccccc1CSC1=NCCS1	1.3	nt	0.1	nt	9.3	-7.4	3.2	-12.1
Cc1ccc(NC(=O)N2CCC(c3nc4c(nnn4Cc4c(F)cccc4Cl)c(=O)[nH]3)CC2)cc1	-1.1	-10.0	-3.3	i	nt	-3.2	4.1	-7.5
Cc1ccc(N(CC(=O)NCCc2ccc(Cl)cc2)S(=O)(=O)c2c(C)noc2C)cc1	16.5	0.7	-0.9	i	20.5	17.9	-3.1	-2.4
Cc1ccc(C2=CSC3=NS(=O)(=O)CCN23)cc1	-3.6	nt	nt	nt	-6.0	3.1	nt	-9.5
COc1cc(C(=O)/C=C/c2cccnc2)c([N+](=O)[O-])cc1OC	10.8	-0.2	-18.5	i	-247.2	nt	10.4	nt
CCOc1ccc(-c2cc(C(=O)NC3CCCCC3)[nH]n2)c(C)c1	nt	-14.2	-2.9	nt	-20.8	nt	-3.4	nt
CC(C)c1ccc(NC(=O)c2ccc(Br)o2)cc1	-4.1	-28.0	0.8	i	-263.3	-0.5	7.0	3.6
CCc1ccccc1NC(=O)Cn1c(=O)n(-c2ccc(CC(=O)NCC3CCCO3)cc2)c(=O)c2ccccc21 (configuration not stated)	-32.0	nt	0.0	i	16.5	22.9	-0.7	10.6
CCn1c(SCC(=O)NCC2CCCO2)nc2c([nH]c3ccccc32)c1=O (configuration not stated)	-0.3	-7.7	4.9	i	23.6	-11.5	-0.3	-9.0
Cc1nc2c(OCc3ccccc3)cccn2c1N(C)C(=O)C1CCCCC1	nt	-36.9	0.2	nt	-9.3	nt	-0.1	nt
CCN(CC)C(=O)[C@H]1CC(CC(=O)NCC23CC4CC(CC(C4)C2)C3)C(=O)N2CCc3c([nH]c4ccccc34)[C@]12C (some centres not stated)	nt	2.9	-18.8	nt	34.7	nt	-10.3	nt
O=C(COc1ccc([N+](=O)[O-])cc1)NCC(c1cccs1)N1CCOCC1 (configuration not stated)	-1.8	nt	1.2	i	-32.4	nt	-0.6	nt
CCN(CCCNC(=O)CCNC(=O)Cn1cnc2ccccc2c1=O)c1cccc(C)c1	-5.9	0.6	0.1	i	-216.5	-12.6	5.2	-6.4
O=C(N/N=C/c1ccc(O)cc1O)C1CC1	-5.2	-16.9	5.4	i	-2.0	nt	4.5	nt
COc1ccccc1Nc1ncc(-c2cccs2)s1	-16.4	-11.6	7.8	i	nt	-3.1	-9.3	-8.9
Cc1nn(-c2ccc(F)cc2)c2sc(C(=O)OCC(=O)N3CCC(C)CC3)cc12	-11.1	-15.8	nt	i	23.5	5.9	nt	-3.0
O=S(=O)(NC(=S)c1ccccc1)c1ccc(Cl)cc1	0.0	-16.9	4.5	i	15.7	6.3	1.5	-4.1
CC(=O)c1cccc(NS(=O)(=O)c2ccc(N/C=C\C(=O)c3ccc(C)cc3)cc2)c1	-6.4	5.7	-7.8	i	nt	-3.2	-0.5	-7.5
CC(=O)N1c2ccccc2NC2=C(C(=O)CCC2)C1c1cccnc1 (configuration not stated)	-3.5	-19.1	0.4	i	nt	-3.8	-1.1	-3.4
CCc1nc2ccc(C(=O)NCCC(C)C)cn2c1N(CC)CCN(C)C	nt	-17.6	2.2	nt	6.1	nt	-3.3	nt
O=C(Cc1ccccc1)c1c[nH]c(C(=O)NCCCn2ccnc2)c1	-5.9	nt	nt	i	-1.7	11.8	nt	2.7
NNC(=O)c1cc(-c2ccco2)[nH]n1	-4.8	nt	2.2	i	7.3	5.2	0.4	-0.1
C/C=C/c1ccc(OC)c(OC(C)=O)c1	11.5	nt	0.6	i	-27.5	-6.2	2.1	1.2
CCCc1nc(SCC(=O)NNC(=O)C2CCCCC2)c2ccccc2n1	-0.3	-19.6	2.8	i	nt	1.6	-1.6	-3.1
CCOC(=O)c1[nH]c2ccc(OC)cc2c1NC(=O)OC	-8.6	-11.4	-0.5	i	nt	-3.5	1.0	-7.6
CC1(C)Cc2c(sc3nc(C4CCCCC4)n(N)c(=O)c23)CO1	64.2	nt	-13.0	i	10.0	1.1	2.6	2.0
CCOC(=O)C1CCCN(C(=O)c2ccc(CNc3c(N4CCC(C)CC4)c(=O)c3=O)cc2)C1 (configuration not stated)	-4.0	-11.6	4.5	i	3.1	-6.0	-1.3	2.3
O=C(N/N=C/c1cn(Cc2ccccc2)c2ccccc12)c1cccnc1	16.0	nt	-18.3	i	38.1	-10.3	-1.3	-14.5

Carrying on:
molecule	CSC inhib	Yeast UUG start	MT1-MMP act inh RFP	Rce1 inh	Env fusion inh	PABP FP inh	MT1-MMP act inh	eIF4H FP inh
CC(C)Cc1ccc(/C=C/C(=O)NC2CC2)cc1	11.2	-8.1	-8.3	i	nt	-3.0	1.7	-6.5
COC(=O)c1sc(NC(=O)COc2ccccc2OC)nc1C	-10.0	-21.1	4.3	i	nt	-5.2	7.3	-8.5
COc1ccc(-n2c(SCc3ccccn3)nc3c(c2=O)SCC3)cc1OC	-7.7	-18.4	5.1	i	7.3	-9.3	1.0	-3.0
CCOC(=O)CSC1=NC(=O)/C(=C\c2ccc(OC(C)=O)cc2)S1	35.8	28.1	-2.7	i	nt	-1.3	-5.2	-0.5
CCn1c(-c2ccc(F)cc2)n[nH]c1=S	2.9	-1.7	3.3	i	nt	-2.5	4.3	-14.3
COCCN(C(=O)c1csnn1)C(C(=O)NC1CCCCC1)c1ccc(Cl)cc1 (configuration not stated)	10.4	-0.1	1.8	i	27.9	1.5	2.1	7.5
Cc1cccc(NC(=O)c2cc(Cl)sc2Cl)c1C	-5.6	nt	5.8	i	-0.2	-3.5	5.5	3.4
CCOc1ccc(NC(=O)c2cc(S(=O)(=O)N3CCCCC3)c[nH]2)cc1	-0.7	-11.5	-13.6	i	-24.1	-8.8	-3.9	2.4
O=C(O/N=C/C1=C(Cl)c2ccccc2CC1)c1ccc(F)cc1	-11.3	-17.5	-2.8	i	nt	5.1	-4.4	1.5
CNS(=O)(=O)c1cc(N(C)S(=O)(=O)c2ccc(C)cc2)c(C)cc1C	0.5	nt	-2.1	i	-4.2	0.7	-1.1	1.7
COc1ccc(S(=O)(=O)N(C)C)cc1NC(=O)CSc1nncs1	-1.5	-5.6	2.2	i	-0.9	21.1	-0.2	-2.8
Cc1ccc(-n2[nH]c3c4c(ccc3c2=O)C(=O)c2ccccc2C4=O)cc1	16.2	nt	9.0	i	5.5	-10.7	6.0	-0.3
CCc1ccc(Nc2nc(N)nc(CSc3nnnn3-c3ccccc3)n2)cc1	23.3	-4.6	-1.0	i	nt	9.8	4.8	-4.9
COc1cccc(Nc2nc(-c3sc(NC(=O)c4ccco4)nc3C)cs2)c1	34.4	-23.1	-2.8	i	66.2*	13.0	-4.9	-5.5
COc1ccc(-c2occ(C(=O)O)c2C(=O)O)cc1	6.8	-7.5	5.1	i	-23.3	-4.7	1.1	-11.1
O=C(N/C(=C/c1ccc(Cl)cc1)c1nc2ccccc2[nH]1)c1ccco1	-8.1	-10.3	-3.5	i	-16.4	-1.3	-3.5	0.0
CCOC(=O)c1ccccc1NC1OC(=O)c2ccccc21 (configuration not stated)	-15.6	-16.4	2.9	i	2.6	14.0	-2.9	-7.6
N#Cc1cnc2c(-c3ccccc3)c(-c3ccccc3)nn2c1N	-20.6	-21.4	-1.2	i	-11.6	-2.3	-1.2	9.4
CSCCC(NS(=O)(=O)c1ccc2c(c1)oc(=O)n2C)C(=O)NC1CCN(Cc2ccccc2)CC1 (configuration not stated)	-4.7	-40.4	0.9	i	-1.7	6.1	-0.6	0.5
CC(C)CC(=O)Nc1ccc(OCC(=O)O)cc1	-15.0	6.8	-1.2	i	-115.2	17.6	0.2	-5.7
COc1ccc(NC(=O)CSc2nnc3ccc(-c4cccnc4)nn23)cc1	7.0	-14.8	0.6	i	-7.6	nt	-2.7	nt
COc1ccc(OC)c(CNC(=O)CCC(=O)N2Cc3cccc(OC)c3Oc3ncccc32)c1	-10.6	-20.6	3.5	i	1.4	-10.0	0.5	-3.0
COc1ccc2c(c1)c1c(c(=O)n(-c3ccc(C)cc3)c(=O)n1CC(=O)NCC1CCCO1)n2C (configuration not stated)	nt	0.5	5.6	nt	11.7	nt	-0.8	nt
C=CCNC(=S)N1CCN(CCN=CC2=C(O)CC(c3cccs3)CC2=O)CC1 (configuration not stated)	nt	-24.0	-1.5	i	-26.5	0.7	-5.1	0.1
CC(C)(C)[C@@H]1C=C(C(=O)N2CCN(Cc3ccccc3)CC2)O[C@H](OCc2ccc(CO)cc2)C1	4.6	-6.1	-5.6	i	-24.1	2.5	-1.1	-5.3
CCN(c1ccccc1)S(=O)(=O)c1cc(NC(=O)CN2CCN(C)CC2)ccc1Cl	12.9	-4.0	0.1	nt	nt	nt	-3.2	nt
COc1ccc(CNC(=O)CCC(=O)c2ccccc2)cc1	-12.1	5.4	0.3	nt	nt	nt	-4.0	nt
COc1ccc(C(=O)OCc2cc(=O)oc3cc(C)ccc23)cc1S(=O)(=O)N1CCOCC1	nt	-20.1	-1.6	nt	4.7	nt	-1.2	nt
CCc1ccc(C(CC(=O)O)N2Cc3ccccc3C2=O)cc1 (configuration not stated)	5.9	1.3	-1.9	i	-6.3	-2.2	-5.9	6.6
CCC(=O)Nc1nc2nc(-c3ccccc3)cc(=O)n2[nH]1	-18.2	nt	1.4	i	2.1	-2.2	-1.8	-10.0

Brought forward from above: two entries; new compounds follow.
molecule	CSC inhib	Yeast UUG start	MT1-MMP act inh RFP	Rce1 inh	Env fusion inh	PABP FP inh	MT1-MMP act inh	eIF4H FP inh
CCc1ccc(C(CC(=O)O)N2Cc3ccccc3C2=O)cc1 (configuration not stated)	5.9	1.3	-1.9	i	-6.3	-2.2	-5.9	6.6
CCC(=O)Nc1nc2nc(-c3ccccc3)cc(=O)n2[nH]1	-18.2	nt	1.4	i	2.1	-2.2	-1.8	-10.0
Nc1nc(Cn2nnc(-c3ccccc3Cl)n2)nc(N2CCOCC2)n1	5.3	-10.8	2.1	i	-27.1	-2.7	-1.4	-0.2
CCCNC(=O)c1ccc(N2CCC3(CC2)CC(c2cccc(Br)c2)=NO3)c(NC(=O)c2ccco2)c1	26.7	1.8	-3.8	i	24.6	nt	4.9	nt
COc1ccc(/C=N/Nc2nnc(-c3ccccc3)c(=O)[nH]2)cc1	-16.3	-21.8	-29.7	i	19.1	30.1	-44.6	6.8
Cc1ccc(NC(=O)COC(=O)CCC(=O)c2cccs2)cc1	nt	nt	4.7	i	nt	-4.5	8.5	-2.9
CCCCN1C=C(C(C)=O)C(=O)CC1	nt	11.0	4.5	nt	-5.9	nt	3.2	nt
CC(=O)c1c(OC(=O)c2ccccc2)ccnc1C(F)(F)F	nt	-1.9	2.6	nt	7.7	nt	5.6	nt
COc1ccc(OCC(=O)OCC(=O)c2ccc(OC)c(F)c2)cc1	-1.2	-7.2	0.4	nt	nt	nt	0.1	nt
CN(/N=C/c1cccnc1)C1=NS(=O)(=O)c2ccccc21	-3.5	nt	1.5	i	-11.9	-2.3	1.0	-1.7
COc1cc(C(=O)NC(C)Cc2cccs2)cc(OC)c1OC (configuration not stated)	-11.0	-6.7	2.4	i	3.2	-3.3	1.8	2.2

Screening data deposited in PubChem by several laboratories.
